KCNQ2 pot – enhances the rat KCNQ2 potassium channel; O88943; CHO-K1 KCNQ2, FluxOR thallium flux fluorescence; stronger effect = higher value; B-score at 10 µM; 310,000 tested, 0.54% active;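 active means fluorescence ratio B-score at least 3 SD of library B-scores, with initial fluorescence B-score within 3 SD, cut at about 5.3 in these data; same plate scores as AID 2156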;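 further: B-score of peak minus minimum over baseline fluorescence ratio after K+ and Tl+ stimulus; positive B-score means potentiation of KCNQ2 with more thallium influx and brighter signal; only the inactives scoring about 0 or higher are listed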
Target sequence (O88943 whole entry, looked up): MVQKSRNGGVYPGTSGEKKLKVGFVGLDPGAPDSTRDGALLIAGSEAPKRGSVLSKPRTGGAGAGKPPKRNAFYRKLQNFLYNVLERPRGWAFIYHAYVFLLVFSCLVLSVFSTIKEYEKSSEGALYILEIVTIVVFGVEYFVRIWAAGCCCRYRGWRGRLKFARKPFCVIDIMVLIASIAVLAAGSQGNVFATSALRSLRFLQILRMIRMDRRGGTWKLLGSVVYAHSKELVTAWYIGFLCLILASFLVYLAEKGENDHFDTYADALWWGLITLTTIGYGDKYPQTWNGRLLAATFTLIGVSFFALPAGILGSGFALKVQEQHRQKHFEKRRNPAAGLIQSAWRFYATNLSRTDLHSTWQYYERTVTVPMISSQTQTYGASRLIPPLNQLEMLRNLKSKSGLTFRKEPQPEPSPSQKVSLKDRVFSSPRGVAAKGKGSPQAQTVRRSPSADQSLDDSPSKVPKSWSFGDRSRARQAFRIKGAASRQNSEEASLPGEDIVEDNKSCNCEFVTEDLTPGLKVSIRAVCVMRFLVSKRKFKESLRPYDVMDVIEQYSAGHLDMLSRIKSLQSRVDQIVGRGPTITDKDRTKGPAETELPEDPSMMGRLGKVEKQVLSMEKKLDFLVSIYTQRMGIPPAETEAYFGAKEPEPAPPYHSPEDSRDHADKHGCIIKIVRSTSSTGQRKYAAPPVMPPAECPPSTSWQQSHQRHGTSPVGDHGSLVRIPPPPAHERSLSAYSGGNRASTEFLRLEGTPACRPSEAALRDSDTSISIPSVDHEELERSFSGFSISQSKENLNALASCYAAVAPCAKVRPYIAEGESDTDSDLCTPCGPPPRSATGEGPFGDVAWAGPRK
KCNQ2 pot baseline – also measured in KCNQ2 pot; calls as there; B-score; compound at 10 µM; measured here: initial fluorescence intensity artifact check;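 brightness before thallium and not channel activity; 0 = typical well and far values either way flag optical interference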
* hit, by the source's call.

SMILES	KCNQ2 pot	KCNQ2 pot baseline
CC/C(=C\C=C\[C@@H]1C=C[C@@H]2CCC[C@H]2[C@@H]1C(=O)c1ccc[nH]1)[C@@H]1O[C@@H]([C@@H](C)C(=O)O)CC[C@@H]1C	28*	0.33*
O=[N+]([O-])c1ccc(N2CCNCC2)cc1Sc1ccccn1	1	1.1
O=C1CN=C(c2cccc(Br)c2)c2cc(Br)ccc2N1	0.92	0.34
CCCCn1c(O)c(C(C)=NCCc2ccccc2)c(=O)[nH]c1=O	0.51	-0.22
CN(C)C(=O)Oc1ccc(-c2cn3cc(C(F)(F)F)ccc3n2)cc1	0.74	-3.1
Cc1cc(C(=O)N=Nc2c(O)n(C)c3ccccc23)c(C)o1	2	0.39
COc1ccc(-c2nn(CCC#N)cc2C(=O)Nc2ccccc2Br)cc1	0.81	-0.44
Cn1c(NN=O)nc2ccccc21	3.2	4.3
CCCCCSc1cc(OC)c(CCNC)cc1OC	1.4	1.9
Cc1ccc(N2C(=O)/C(=C/c3ccc(CN(CCC#N)S(C)(=O)=O)o3)C(=O)NC2=S)cc1C	0.27	0.68
CCS(=O)(=O)N1CCC(C(=O)N2CCC3(CC2)OCCO3)CC1	1.2	-1.3
COC(=O)C1=CO[C@@H](C)[C@@H]2CN3CC[C@@]4(C(=O)Nc5ccccc54)[C@@H]3C[C@H]12	0.89	-1.4
OCC12CO[C@@H]3c4ccccc4[C@H](OC1)N32 (some centres undefined)	0.58	-2
CCCCn1c(O)c(C(C)=NCc2ccc(F)cc2)c(=O)[nH]c1=O	0.72	0.83
O=C1CC(=O)N(c2ccccc2)C(=O)N1c1ccccc1	2.4	1.1
COc1ccc2[nH]cc(CCN(C)C)c2c1	0.36	-0.6
CCC(=NCc1cccnc1)c1c(O)n(-c2ccc(Cl)cc2)c(=O)[nH]c1=O	0.69	-0.01
CC(C)OC(=O)C1C(=O)NC2(C)CC1c1ccccc1O2 (centres undefined)	1.3	-1.9
O=C(N/N=C/c1c(O)n(CCc2ccccc2)c(=O)[nH]c1=O)c1ccccc1	0.08	-0.95
CCOC(=O)c1ccc(N=C(C)c2c(O)[nH]c(=O)[nH]c2=O)cc1	0.55	0.1
O=c1c2ccccc2nc(-c2ccco2)n1-c1ccncc1	0.38	-0.93
COC(=O)C1=CO[C@@H](C)[C@@H]2CN3CC[C@]4(C(=O)Nc5ccccc54)[C@@H]3C[C@H]12	0.01	-0.58
CN1CC2=CC(O)CC3Oc4c(O)ccc(c4[C@]23C)C1 (some centres undefined)	1.6	1.4
O=C(C1CC(=O)N(C2CCCC2)C1)N1CCC2(CC1)OCCO2 (centres undefined)	1.2	-2.3
COc1cc2ccc(=O)oc2c2ccoc12	0.52	-0.45
(list continues)
SMILES	KCNQ2 pot	KCNQ2 pot baseline
CC(=O)c1cn(CC(=O)NCCc2c[nH]c3ccccc23)c2ccccc12	0.04	0.17
O=C(COC(=O)Cc1ccccc1)Nc1cc(S(=O)(=O)N2CCCCC2)ccc1Cl	0.67	1.3
CC(=O)O[C@@H]1/C=C/[C@](C)(O)C[C@@H](C)C/C=C/[C@H]2[C@@H]3O[C@]3(C)[C@@H](C)[C@H]3[C@H](Cc4ccccc4)NC(=O)[C@@]312	2.7	-0.95
Cc1ccc(Cn2nc(C)c(C=O)c2Cl)cc1	0.23	0.34
NC(Cc1nc2ccccc2[nH]1)c1ccc(Cl)cc1 (centres undefined)	0.93	0.01
COc1ccccc1CNCCc1ccc(F)cc1	1.5	0.94
CN(Cc1ccccc1)C(=O)CN1CCCC1=O	0.09	1.3
C/C(CC(c1ccccc1)c1c(O)c2ccccc2oc1=O)=N\NC(N)=S (centres undefined)	0.89	-0.02
O=C(Nc1ccc(Br)cc1)N1C[C@H]2C[C@@H](C1)c1cccc(=O)n1C2	0.02	0.77
Cn1c(O)c(Cc2cccc(Cl)c2Cl)c(=O)n(C)c1=O	0.61	0
Cc1ccccc1N1CCN(C2CCCN(C(=O)Cc3c(C)noc3C)C2)CC1 (centres undefined)	0.9	-1
CCOC(=O)c1c(/N=C/C2C(=O)NC(=O)NC2=O)sc2c1CCC2	0.38	1.4
Cn1c(O)c(/C=N/N2CCCCC2)c(=O)[nH]c1=O	0.34	-3.1
Cc1cc(C)c(S(=O)(=O)NCC2CCC(C(=O)N3CCC4(CC3)OCCO4)CC2)c(C)c1 (centres undefined)	0.25	1.2
CNP1(NC)=Nc2nn(-c3ccccc3)c(N)c2C(c2ccccc2)=N1	0.32	0.76
Cc1ccc(/C=C2/C(=O)NC(=O)N(CC3CCCO3)C2=O)s1 (centres undefined)	1.1	-0.07
O=C(Cc1ccccc1)Oc1ccc(N2C(=O)C3CCCCC3C2=O)cc1 (centres undefined)	0.9	0.97
CCN(CC)C(=O)Oc1ccc(NC(=O)N2CCOCC2)cc1	0.23	0
Cn1c(O)c(C(=N)COc2cccc(Cl)c2)c(=O)n(C)c1=O	0.65	-0.81
Cc1cccc(CCNCc2cc3ccc(C)cc3[nH]c2=O)c1	1.4	2.7
COC(=O)C1=C(c2cccc(OC)c2OC)C[C@@H]2CC[C@H]1N2C(=O)NC(C)C	0.93	-0.4
C=CCn1c(O)c(C(CC)=Nc2cccc(C(=O)O)c2)c(=O)[nH]c1=O	1.6	-1.7
CCNC(=S)N1CCn2cccc2C1c1cccnc1 (centres undefined)	1.3	-0.02
C/C(Cl)=C/CC1(CN2CCCC2=O)C(=O)NC(=O)NC1=O	0.94	0.93
CCC(C)n1c(O)c(/C=N/N2CCOCC2)c(=O)[nH]c1=S (centres undefined)	1	-2
The listing continues:
SMILES	KCNQ2 pot	KCNQ2 pot baseline
Fc1cccc(F)c1-c1nc(-c2ccc(Cl)cc2)no1	0.34	2.1
Cc1ccc(Sc2ccc(C=C3C(=O)N(C)C(=O)N(C)C3=O)o2)cc1	0.45	-0.02
Cn1c(=O)cc(OCC(=O)N2CCC3(CC2)OCCO3)c2ccccc21	0.11	-0.06
CCOC(=O)c1c(N)n(Cc2ccc(OC)cc2)c2nc3ccccc3nc12	0.03	1.6
COc1cc(OC)c(OC)cc1CNCCc1ccc2c(c1)OCO2	2.8	-0.09
O=C1CN=C(c2ccccc2)c2cc(Br)ccc2N1Cc1cc(=O)n2ccccc2n1	0.47	0.88
COC(=O)C1=C(c2cccc(OC)c2OC)C[C@@H]2CC[C@H]1N2C(=O)NCc1ccc(C(F)(F)F)cc1	0.93	1.1
Cc1c(N=Cc2c(O)n(Cc3ccc(F)cc3)c(=O)[nH]c2=O)c(=O)n(-c2ccccc2)n1C	0.29	2
Cc1ccc(CNCCc2ccccc2F)cc1	0.94	0.39
Cc1ccc2c(c1)=NC(=O)/C(=C/c1c(O)[nH]c(=O)[nH]c1=O)C=2	0.53	-2.3
CN1CCN(c2ccc([N+](=O)[O-])c(N/N=C3\CN4CCC3CC4)c2)CC1	1.1	-2
CN1C2CCC1C(COC(=O)c1ccccc1)C(O)C2 (centres undefined)	0.99	-0.21
CCN(CC)CCN=Cc1c(O)n(CCc2ccccc2)c(=O)[nH]c1=O	0.04	0.07
C=CCn1c(O)c(C(C)=NC2CCN(Cc3ccccc3)CC2)c(=O)[nH]c1=O	0.71	3.7
CCOP(=O)(Cc1ccc(C(=O)CC)o1)OCC	1.8	0.8
CC(=NC1CCN(Cc2ccccc2)CC1)c1c(O)n(C)c(=O)n(C)c1=O	3.4	-0.6
COc1cc(OC)c(OC)cc1/C=C1\C(=O)NC(=O)N(Cc2ccccc2)C1=O	0.73	-0.13
OC(c1ccncc1)(c1ccc(F)cc1)c1ccc(F)cc1	0.07	-0.19
COc1ccccc1[As](=O)(O)CC(O)COc1ccc(Cl)cc1Cl (centres undefined)	0.02	-0.57
CN1CC=C(c2c[nH]c3ccccc23)CC1	0.03	-0.39
CN1CCN(c2cc(N3CCCC3)c([N+](=O)[O-])cc2F)CC1	2.2	-0.86
CC1=C(C(=O)Nc2ccccc2)S(=O)(=O)CCO1	0.24	0.85
CCOC(=O)C1C2c3ccccc3O[C@@]1(C)N=C1SCC(=O)N12 (some centres undefined)	0.97	-1.5
O=c1c2ccccc2nc(-c2ccco2)n1-c1nccs1	1.2	-1.2
Oc1ccc2ccccc2c1CN1CC=C(c2ccccc2)CC1	1.1	-0.87

Entries of single compounds as entered above.
Record of CCN(CC)CCN=Cc1c(O)n(CCc2ccccc2)c(=O)[nH]c1=O : KCNQ2 pot = 0.04; KCNQ2 pot baseline = 0.07
Record of CN1CCN(c2cc(N3CCCC3)c([N+](=O)[O-])cc2F)CC1 : KCNQ2 pot = 2.2; KCNQ2 pot baseline = -0.86

Next section.
SMILES	KCNQ2 pot	KCNQ2 pot baseline
Cc1ccccc1NC(=S)NC(NC(=O)CF)C(Cl)(Cl)Cl (centres undefined)	1.2	-0.55
c1ccc(C2CN3CCC2CC3)cc1 (centres undefined)	0.01	0.51
N#Cc1c(/N=C/c2c(O)n(Cc3ccco3)c(=O)[nH]c2=O)sc2c1CCCC2	0.14	-0.12
CC1N=C(c2ccccc2Cl)c2cc(Br)ccc2NC1=O (centres undefined)	1.7	2.1
CCOP(=O)(Oc1ccccc1)c1c([N+](=O)[O-])cc(C(F)(F)F)cc1[N+](=O)[O-] (centres undefined)	0.37	0.83
Oc1cccc2cccnc12	0.54	0.57
N/C(=N/[N+](=O)[O-])N1CCN(C(=O)Oc2ccc([N+](=O)[O-])cc2)CC1	0.05	-0.55
N[C@@H](Cc1c[nH]c2ccccc12)c1nnc(SCc2ccc(F)cc2)o1	1.1	0.31
N#CC1=C(N)Oc2c(c(=O)sc3ccccc23)C1c1cccnc1 (centres undefined)	2.3	-0.6
O=c1c2ccccc2nc(/C=C/c2ccccc2O)n1-c1ccccc1O	1.9	-1
C=CCn1c(O)c(C(CC)=NCc2ccco2)c(=O)[nH]c1=O	0.13	-1.9
COc1ccc(S(=O)(=O)NCc2ccc(C(=O)N3CCC4(CC3)OCCO4)cc2)cc1	0.47	-0.1
N=c1n(CCO)c2ccccc2n1Cc1ccccc1	0.3	0.15
CC(C)NS(=O)(=O)c1ccc(OCC(=O)N2CCN(Cc3ccc4c(c3)OCO4)CC2)c(Cl)c1	0.83	-0.26
Clc1ccc2sc(C3CCNCC3)nc2c1	1.1	0.64
N#CCCn1cc(C(=O)O)c(-c2cccc([N+](=O)[O-])c2)n1	2.1	-0.79
Cc1ccccc1N1C(=O)CC(=O)N(c2ccccc2C)C1=O	0.49	-0.23
COc1cccc(CNCCc2ccc3c(c2)OCO3)c1OC	1.7	0.18
COc1ncccc1C(=O)NCC(CC(=O)O)c1ccccc1 (centres undefined)	1.5	-0.12
CN1CCN(Cc2nc3ccccc3n2C)CC1	1.4	-0.06
Cc1cc(OCC(=O)N[C@H](C(=O)O)c2ccccc2)c2c3c(c(=O)oc2c1)CCC3	1.9	2.6
COc1ccccc1CN1CCCC(C(=O)c2ccccc2SC)C1 (centres undefined)	0.8	-1.9
CN(C)CCc1nn[nH]n1	0.12	-1
COc1ccc(C2SCC(=O)Nc3c2c(=O)[nH]n3C2CCCCC2)cc1 (centres undefined)	0.49	-0.86
COc1cc(CN2CC3CC(C2)c2cccc(=O)n2C3)cc(OC)c1OC (centres undefined)	0.5	-0.27

4 of these compounds, set out differently:
SMILES: N=c1n(CCO)c2ccccc2n1Cc1ccccc1
- KCNQ2 pot: 0.3
- KCNQ2 pot baseline: 0.15

SMILES: COc1ncccc1C(=O)NCC(CC(=O)O)c1ccccc1 (centres undefined)
- KCNQ2 pot: 1.5
- KCNQ2 pot baseline: -0.12

SMILES: O=c1c2ccccc2nc(/C=C/c2ccccc2O)n1-c1ccccc1O
- KCNQ2 pot: 1.9
- KCNQ2 pot baseline: -1

SMILES: N#Cc1c(/N=C/c2c(O)n(Cc3ccco3)c(=O)[nH]c2=O)sc2c1CCCC2
- KCNQ2 pot: 0.14
- KCNQ2 pot baseline: -0.12

A draw from above in order of number of heavy atoms, ascending:
SMILES	KCNQ2 pot	KCNQ2 pot baseline
COc1cccc(CNCCc2ccc3c(c2)OCO3)c1OC	1.7	0.18
O=c1c2ccccc2nc(/C=C/c2ccccc2O)n1-c1ccccc1O	1.9	-1
N#Cc1c(/N=C/c2c(O)n(Cc3ccco3)c(=O)[nH]c2=O)sc2c1CCCC2	0.14	-0.12

(continued)
SMILES	KCNQ2 pot	KCNQ2 pot baseline
COP(=O)(Cc1ccc(C#N)o1)OC	1.4	-0.08
CCC1(CC)C(=O)NC(=Nc2cccc(C(F)(F)F)c2)NC1=O	1.4	-0.01
CCOP(=O)(OCC)C(NC(=O)c1cccc(C)c1)C(Cl)(Cl)Cl (centres undefined)	0.7	0.6
Nc1ccc(N2CCN(Cc3ccccc3Cl)CC2)c(Cl)c1	0.25	0.34
CCOc1ccc(C(C)=O)cc1Cc1c(O)[nH]c(=S)[nH]c1=O	0.52	0.03
CCn1c(O)c(N=Nc2cccc(S(=O)(=O)N3CCOCC3)c2)c(=O)n(CC)c1=S	0.88	0.22
Cc1ccc(/C=C2/C(=O)NC(=O)N(C)C2=O)cc1	2.2	-0.68
C/C(=N\NC(=O)c1ccccc1O)c1c(O)n(C2CCCCC2)c(=O)[nH]c1=O	2.4	-0.68
COc1cc(CNCCc2c[nH]c3ccccc23)cc(OC)c1	0.62	-0.68
O=C(CN1CC=C(c2ccccc2)CC1)NC(=O)NCc1ccccc1	0.52	-0.98
O=C(Nc1cccc(Cl)c1)N1C[C@H]2C[C@@H](C1)c1cccc(=O)n1C2	0.49	0.28
O=S1(=O)CC2(N3CCOCC3)CCCCC21 (centres undefined)	1.4	0.25
O=P(OCC(F)(F)C(F)F)(N1CCCCC1)N1CCCCC1	0.37	-2.5
CCN1CCN(C(=O)Cc2ccccc2OC)CC1	0.77	-0.45
CCOC(=O)c1ccc(NC(=O)N2C[C@@H]3C[C@@H](C2)c2cccc(=O)n2C3)cc1	0.99	1
CC1(C)N2CC3([N+](=O)[O-])CN1CC([N+](=O)[O-])(C2)C3	1.9	0.19
C=CCN1CC[C@]23c4c5ccc(O)c4O[C@H]2/C(=N/NC(=O)c2ccccc2)CC[C@@]3(O)[C@H]1C5	0.03	-1.4
C=CCn1c(O)c(C(C)=Nc2cc(OC)ccc2OC)c(=O)[nH]c1=O	0.07	-0.61
CN(C(=O)CNC(=O)OCc1ccccc1)c1ccc(Br)cc1C(=O)c1ccccc1Cl	0.51	0.91

An excerpt. The share of hits here may be higher or lower than overall.
